# Biofilm kill mix: clotrimazole potentiators killing C. albicans biofilm, primary screen, 4-compound mixtures | C. albicans biofilm persisters + clotrimazole, fluorescence viability; primary screen in compound mixtures of four per well | inhibition, % at 7.6 µM | AID 1242, 2008 | 0.02% of 120,000 active;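 active means inhibition above 30.3% in the primary screen of four-compound pools, then above 30% when the compound was retested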;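 further: compounds exposed to preformed 24 h biofilms for 48 h; the number belongs to the whole pool; some results filed as inactive read as strong as hits; inactives centre near 12; 0% = biofilm with clotrimazole alone and 100% = kill control; retested singly at about 60 µM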
#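 Incubation: 24 h biofilm formation, then 48 h compound exposure, 37 °C | Material: C. albicans biofilms | Buffer or medium: RPMI/MOPS medium, pH 7.0 | Measured by: 2-h Alamar Blue fluorescence, 535/590 nm excitation/emission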
# The depositor's hits bear a star. A portion of the library; the hit share may differ from the screen's.
# Sample of the layout:
SMILES,Biofilm kill mix
O=S1(=O)CCC(NC(=S)SCc2ccccc2Br)C1 (stereo not given),9
C#CCOCCOCCOCCNc1nc(N2CCN(C(=O)[C@H]([C@@H](C)CC)n3cc([C@@H](N)CC(C)C)nn3)CC2)nc(N2CCN(C(=O)[C@H](CCCCN)n3cc([C@@H](N)CC(C)C)nn3)CC2)n1,11

# The list itself, previewed entries included:
SMILES,Biofilm kill mix
O=S1(=O)CCC(NC(=S)SCc2ccccc2Br)C1 (stereo not given),9
C#CCOCCOCCOCCNc1nc(N2CCN(C(=O)[C@H]([C@@H](C)CC)n3cc([C@@H](N)CC(C)C)nn3)CC2)nc(N2CCN(C(=O)[C@H](CCCCN)n3cc([C@@H](N)CC(C)C)nn3)CC2)n1,11
CC(Cc1cccs1)NC(=O)Nc1ccc([N+](=O)[O-])cc1 (stereo not given),18
Cc1cc(=O)oc2cc(OCC(=O)NCC3CCCO3)ccc12 (stereo not given),23
O=C(Nc1ccccc1F)c1ccc(Cn2cc(Br)cn2)cc1,15
Cc1ccc(CSCCNC(=O)c2ccc(NS(C)(=O)=O)cc2)cc1,15
O=[N+]([O-])c1ccccc1S(=O)(=O)N1CCN(Cc2ccc3c(c2)OCO3)CC1,-7
CCOc1ccc(N2C(=O)S/C(=C\c3cccn3C)C2=O)cc1,13
CCOC(=O)c1sc(NC(=O)CSc2nc3c(c(=O)n2-c2ccc(F)cc2)SCC3)c(C(=O)OCC)c1C,16
CCN1CCN(C(=S)Nc2ccc3nc(N4CCN(C)CC4)cc(C)c3c2)CC1,12
O=C(NNC(=O)C12CC3CC(CC(C3)C1)C2)c1ccccn1,20
COc1ccccc1CNC(=O)C1CCC(CNc2c(N3CCC(C)CC3)c(=O)c2=O)CC1 (stereo not given),22

# An excerpt of the results above, for reference:
SMILES,Biofilm kill mix
CC(Cc1cccs1)NC(=O)Nc1ccc([N+](=O)[O-])cc1 (stereo not given),18
Cc1cc(=O)oc2cc(OCC(=O)NCC3CCCO3)ccc12 (stereo not given),23

# More compounds
SMILES,Biofilm kill mix
CCOC(CNC(=O)c1ccc(N2CCc3ccccc32)c([N+](=O)[O-])c1)OCC,9
CCC(C)NCCOc1ccc(C)cc1[N+](=O)[O-] (stereo not given),15
O=C(O)c1cc(-c2cccnc2)nc2ccccc12,18
O=C1CC(Cc2ccccc2)C(=O)N1c1ncccn1 (stereo not given),17
CC(C)(C)C(=O)Cn1ncc(Cl)c(Cl)c1=O,16
Cc1ccc(C(=O)O/N=C/c2c(C)nn(C)c2Cl)cc1,17
O=C(N/N=C\C=C\c1ccco1)c1cc(-c2ccc3ccccc3c2)n[nH]1,21
COc1ccc(/C=C2/SC(=O)NC2=O)cc1,21
Cn1cc(C(=O)NCc2ccccc2F)cn1,4
NC(=O)Cc1nc(-c2ccc([N+](=O)[O-])cc2)cs1,22
CCN(CC(=O)NCc1ccccc1Cl)CC(=O)Nc1c(F)cccc1F,8
Cc1nccn1CC(=O)N/N=C/c1ccc(O)c(O)c1,19
CN(C)S(=O)(=O)c1ccc(Cl)c(NC(=O)COC(=O)/C=C/c2ccco2)c1,6
Cn1c([N+](=O)[O-])cnc1COC(N)=O,0
O=C1NC[C@H](Cc2ccc(O)cc2)N(CCc2cccc3ccccc23)C1=O,13
CCO[C@@H]1OC(C(=O)NCc2ccccc2)=C[C@H](c2csc3ccccc23)[C@H]1CCCO,11
COc1ccccc1-n1cc(CN2CCN(C3CCCCC3)C(CCO)C2)cn1 (stereo not given),11
Cc1cc(C(=O)N/N=C/c2cc(Cl)cc([N+](=O)[O-])c2O)c2ccccc2n1,9
CC(C)[C@H](NC(=O)c1ccccc1Cl)C(=O)OCc1cc(=O)n2cc(Br)ccc2n1,15
Cc1ccc2nc(C)cc(Cl)c2c1,16
O=C(OCC(=O)N1CCCC1)c1ccc(S(=O)(=O)N2CCOCC2)cc1,11
O=C(CSc1nc2ccccc2s1)Nc1ccc(Cl)c(S(=O)(=O)N2CCOCC2)c1,7
C=CCN(CC=C)C(=O)Cn1cnc([N+](=O)[O-])n1,18
Cc1ccc(Cn2c(/C=C/c3ccco3)nc3ccccc32)cc1,18
Cc1ccc(-n2[nH]c(C)c(/C=N/N3C(=O)c4cccc5cccc(c45)C3=O)c2=O)cc1,0
CC1(C)CC(=O)C(C=NCCN2CCN(C3CC(=O)N(c4ccc(Cl)c(Cl)c4)C3=O)CC2)=C(O)C1 (stereo not given),25
Cc1ccc(C)c(-n2c(SCC(=O)N3CCC(C(=O)O)CC3)nnc2-c2cccc(Cl)c2)c1,25
Cn1nnnc1SCC(=O)Nc1ccc(S(=O)(=O)N2CCOCC2)cc1,14
CCCCNC(=O)COC(=O)c1ccccc1F,14
COc1ccc2c(c1OC)C(=O)OC2Nc1nc(-c2cc3cc(Br)ccc3oc2=O)cs1 (stereo not given),14
CCSc1nc2sc3c(c2c2[n+]1CC(CBr)O2)CCCC3 (stereo not given),1
O=C(CN1CCN(Cc2ccccc2F)C1=O)NC1CCCC1,20
OCC1(Cc2cccc(F)c2)CCN(Cc2cccc3nccnc23)CC1,13
Cc1ccc(OCC(=O)NC2CCCc3ccccc32)c(C)c1 (stereo not given),14
CCn1c(=O)c2cc(C(=O)N3CCN(C(=O)c4ccco4)CC3)sc2c2ccccc21,7
COc1cc(/C=N/n2c(-c3ccccc3)n[nH]c2=S)cc(OC)c1O,14

# An excerpt from above in order of SMILES length, ascending.
SMILES,Biofilm kill mix
Cc1ccc(OCC(=O)NC2CCCc3ccccc32)c(C)c1 (stereo not given),14
O=C(Nc1ccccc1F)c1ccc(Cn2cc(Br)cn2)cc1,15
OCC1(Cc2cccc(F)c2)CCN(Cc2cccc3nccnc23)CC1,13
Cc1ccc(CSCCNC(=O)c2ccc(NS(C)(=O)=O)cc2)cc1,15
COc1cc(/C=N/n2c(-c3ccccc3)n[nH]c2=S)cc(OC)c1O,14
CCN1CCN(C(=S)Nc2ccc3nc(N4CCN(C)CC4)cc(C)c3c2)CC1,12

# Other compounds
SMILES,Biofilm kill mix
[O-]/C(=C(\C(=S)Nc1ccccc1F)[n+]1ccccc1)c1ccc(-c2ccccc2)cc1,3
CCN1CCN(C(=O)NC(c2ccc(C)c(F)c2)C(Cl)Cl)CC1 (stereo not given),13
Cc1ccc(-c2cc(C(=O)N/N=C/C=C/c3ccccc3)n[nH]2)o1,11
Cc1ccc(NC(=O)CN2C(=O)N/C(=C/c3cc(C)n(-c4ccc(C(=O)O)cc4)c3C)C2=O)cc1,3
CCOc1ccc(N(C)S(=O)(=O)c2ccc(C)c(C(=O)OCC(=O)c3c[nH]c4ccccc34)c2)cc1,12
CCOC(=O)c1c(NC(=O)CCl)sc(CN(C)C)c1-c1ccccc1,0
OCC1(Cc2ccccc2)CCN(Cc2cnn(-c3ccccc3F)c2)CC1,24
O=C1O/C(=C/c2ccccc2)c2ccccc21,7
Cc1ccc(-c2nnc(N3CCOCC3)c3ccccc23)cc1S(=O)(=O)NCc1cccnc1,12
O=C(CCc1nc(-c2ccc(Cl)cc2)no1)NCC1CCCO1 (stereo not given),4
CC(C)(C)C(=O)COC(=O)c1c2c(nc3ccccc13)CCC2,0
CCC(C)(C)NC(=O)CCn1c(-c2ccccc2)cc(C(C)=O)c1C,17
CCOC(=O)c1[nH]c2c(c1-c1ccccc1)C(=O)CC(c1ccccc1)C2 (stereo not given),9
CCN(CC)S(=O)(=O)c1ccc2[nH]cc(C(=O)NCCCN3CCCCC3)c(=O)c2c1,15
Cc1cc(SCC(=O)Nc2cccc(S(=O)(=O)NC3=NCCCCC3)c2)c(C)cc1Br,20
COc1cccc(C(=O)N(c2ccccc2)C2C=CS(=O)(=O)C2)c1 (stereo not given),11
COC(=O)c1ccc2c(c1)C(=O)/C(=C/c1ccc(O)cc1)O2,3
CC(=O)/C(=N/Nc1ccccc1)Sc1nnc(CCc2ccccc2)n1-c1ccccc1,10
COc1ccc(Br)cc1/C=N/NC(=O)c1cc(OC)c(OC)c(OC)c1,14
O=C(NCc1ccco1)c1cccc(S(=O)(=O)N2CCc3ccccc32)c1,14
Cc1nc2cc(-c3ccccc3)nn2c(C)c1CCC(=O)NC(C)c1ccc2c(c1)OCCO2 (stereo not given),14
N#C/C(=N\Nc1ccc(Cl)cc1)C(=N)N1CCCCCC1,16
CN(C)S(=O)(=O)c1cc(NC(=O)COC(=O)c2ccc3c(c2)OCO3)ccc1Cl,17
Cc1ccc2c(c1)nnn2C1CCN(CC(=O)NNC(=O)c2ccco2)CC1,19

# Pulled by compound from the entries so far (3):
SMILES,Biofilm kill mix
O=C(NCc1ccco1)c1cccc(S(=O)(=O)N2CCc3ccccc32)c1,14
CCN(CC)S(=O)(=O)c1ccc2[nH]cc(C(=O)NCCCN3CCCCC3)c(=O)c2c1,15
COc1ccc(Br)cc1/C=N/NC(=O)c1cc(OC)c(OC)c(OC)c1,14

# More results
SMILES,Biofilm kill mix
O=C(NCc1ccccn1)C(=O)NCC(c1ccco1)N1CCOCC1 (stereo not given),5
COc1ccccc1N(CC(=O)NCc1ccco1)S(C)(=O)=O,18
Cc1ccccc1NC(=O)C1CCN(c2cc(-c3ccccc3)nc3ncnn23)CC1,11
Cc1cc(C)nc(N2CCCC(C(=O)Nc3nnc(C(C)C)s3)C2)n1 (stereo not given),14
O=C(O)c1ccccc1C(=O)N1CCN(C(=O)c2ccccc2Cl)CC1,10
OC(CNCCc1ccccc1)COc1ccc(OCC(O)CNCCc2ccccc2)cc1 (stereo not given),3
Cc1ccc2cc(CN(CC3CCCO3)C(=O)Nc3ccccc3F)c3nnnn3c2c1 (stereo not given),-2
COc1cccc(NC(=O)C(Sc2nnnn2C)c2ccccc2)c1 (stereo not given),28
CSc1sc(C(=O)NCC2CC2)c2c1S(=O)(=O)N(C)c1ccccc1-2,24
Cc1cccc2sc(N(CCCN(C)C)C(=O)c3nc4ccccc4s3)nc12,15
O=C(/C=C/c1ccccc1)Oc1ccccc1C(=S)N1CCOCC1,28
O=C(Nc1nccs1)C1CC(=O)N(c2ccc(Cl)cc2)C1 (stereo not given),5
COc1ccc(CN(CC2CCC(C(=O)O)CC2)C(=S)Nc2cc(Cl)ccc2OC)cc1 (stereo not given),14
COc1cccc(CNC(=O)CSc2ccc(-c3ccncc3)nn2)c1,14
N=c1sccn1CC(=O)Nc1ccc(S(N)(=O)=O)cc1,30
Cc1c(Cl)sn(-c2ccc(Cl)cc2)c1=O,12
O=c1[nH]c2ccc(NS(=O)(=O)c3ccc4ccccc4c3)cc2[nH]1,5
COCC(=O)NC1CC2CCC(C1)N2C(=S)Nc1ccccc1C(=O)OC (stereo not given),3
CCC(O)C1CCN(C(=O)c2cc(COc3ccc4ncccc4c3)on2)CC1 (stereo not given),12
COC(=O)c1c(C)oc2ccc(N(C(=O)c3ccncc3)S(=O)(=O)c3ccc(C)cc3C)cc12,9
C=CCc1cc(C)ccc1OCCOCCC(C(=O)OCC)C(=O)OCC,13
CCOC(=O)/C(C#N)=C/Nc1cc(C(C)(C)C)sc1C(C)=O,13
COc1ccccc1C1=NOC(Cn2c(NCC3CCCO3)nc3c2c(=O)n(C)c(=O)n3C)C1 (stereo not given),19
Cc1cccc(C(=O)OCC(=O)NC(C)CCc2ccccc2)c1 (stereo not given),24
COc1cc(C2(O)CCCCC2C)cc(OC)c1OC (stereo not given),17
COCCn1c(SCC(=O)Nc2ccc3c(c2)CCC3)nc2ccccc2c1=O,8
CSc1ccccc1OC1CCN(Cc2ccccc2)CC1,5
O=c1c2ccccc2nc(SCc2ccc(F)cc2Cl)n1CCCN1CCOCC1,27
O=c1c2ccc([N+](=O)[O-])cc2ncn1CCOc1cccc(Br)c1,17
CC(C)(C)c1cc(C(=O)NNC(=O)Nc2cccc(Cl)c2)n(Cc2ccccc2)n1,15
COC(=O)CSc1cc([N+](=O)[O-])ccc1NC(=O)OC,5
O=C(COc1cccnc1[N+](=O)[O-])NCCc1ccccc1,31
CC(=O)NC1(c2ccc(F)cc2)CCN(C(=O)c2c(F)cccc2F)CC1,13
CCOc1cc(/C=N/N=C2/NC(=O)C(CC(=O)O)S2)ccc1OCc1ccc(Cl)cc1Cl (stereo not given),8
Fc1ccccc1NC(=S)N1CCCCC1,12
CC(=O)/C(C#N)=C1\NC(=O)C(Cc2ccc(F)cc2)S1 (stereo not given),11
COc1ccc(-c2cc(C(=O)NCC3CCCO3)c3ccccc3n2)cc1 (stereo not given),9
O=C(NC1CCCC1)C(c1ccc(Cl)cc1)N1CCN(C2CCCCC2)CC1 (stereo not given),24
Cc1cc(C)c(S(=O)(=O)NC(C)C)c(C)c1-n1cnnn1,24
O=C(Nc1ccncc1NC(=O)c1cccc([N+](=O)[O-])c1)c1cccc([N+](=O)[O-])c1,8
O=C(Nc1nnc(CSCc2ccc(Cl)cc2)s1)c1cccc([N+](=O)[O-])c1,3
CCOC(=O)C(NC(=O)c1cccc(Cl)c1)(Nc1nnc(C)s1)C(F)(F)F (stereo not given),11
CCCCOc1ccc(S(=O)(=O)NC(=O)NCc2ccc(OCCC)cc2)cc1,10
CCC(CC)NC(=O)COC(=O)c1cc(SC)ccc1Cl,14
Cc1ccc(/C=N\NC(=O)CCc2n[nH]c(=O)[nH]c2=O)o1,11
COc1cccc(OC)c1C(=O)NC(=S)NCc1ccco1,7
CC1(C)CC2(CC(c3ccc(F)cc3)c3ccc(O)cc3O2)NC(=S)N1 (stereo not given),23
COc1ccccc1N=C1SCC(=O)N1Cc1ccco1,8
CC(OC(=O)c1ccc2c(c1)C(=O)N(Cc1ccncc1)C2=O)C(=O)Nc1cccc(Cl)c1Cl (stereo not given),11
CC(C)(C)Nc1nc(Cl)nc(NC(C)(C)C)n1,17
N#Cc1ccc(C(=O)Nc2ccn(-c3ccccc3)n2)cc1,0
CC(=O)c1cc(C#N)c(NCCCN(C)C)nc1C,-11
COC(=O)C1CCN(C(=O)/C=C/c2ccccc2)CC1,13
CC1CCCC(NC(=O)COC(=O)Cc2c[nH]c3ccccc23)C1C (stereo not given),7
Cc1ccccc1/C=N/Nc1ccnc2cc(Cl)ccc12,13
